Source: PubChem
Rce1 inhib: yeast Rce1p protease inhibitors, primary screen, biochemical, fluorescence, cell-free homogeneous; calls only; AID 2563, 2010; hit rate 0.27% among 290,000; yeast membranes, quenched prenylated peptide cleavage fluorescence; CAAX prenyl protease 2 (Saccharomyces cerevisiae (strain ATCC 204508 / S288c)), Q03530;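 active = fall in fluorescence gain of 50% or more versus controls, with final raw signal at or below 3038400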;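 also: plate controls were neutral control wells for no effect and wells lacking membranes for full effect; tested at 10 µM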
eIF4H inh: human eIF4H binding inhibitors, primary screen, translation initiation inhibitor project, biochemical, uHTS, fluorescence polarization; eIF4H fluorescence polarization binding assay; inhibition, % at 35 µM; hit rate 0.94% among 290,000;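 active = 50% or more with normal probe brightness, or confirmed in later tests; about a fifth of its hits are not listed in these tables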;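 also: calls also rest on retests at 20 µM and on dose response follow-up; 0% = protein and probe with vehicle and 100% = probe without protein; strong numbers were not always called active; many hits fall short of the cut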
HIV Env fusion: inhibitors of HIV-1 Env-driven cell-cell fusion, primary screen, HeLa-JRFL effector, CEM21 target cells, luciferase | inhibition, % at 12.3 µM | hit rate 1.1% among 360,000 | AID 651610, 2012;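 active = mean replicate inhibition score of at least 50 and every replicate individually at or above 50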;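 also: 0% = plate neutral controls and 100% = maraviroc near 300 nM; one replicate is shown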
MT1-MMP act inh: blockers of MT1-MMP proenzyme processing, primary screen, HT1080 RFP-PRO-GFP cells, GFP/RFP fluorescence; hit rate 0.061% among 360,000; Matrix metalloproteinase-14 (Homo sapiens), P50281; GFP/RFP ratio fluorescence, overnight; percent of plate control window, DMSO zero; GFP/RFP ratio change, % at 20 µM;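 active = GFP/RFP ratio change of at least 30% with cell ATP level not reduced by more than half and red fluorescence within 50% of control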; also: strong numbers were not always called active
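Assay system: HT1080 cells carrying an RFP-PRO-GFP reporter | Dosing: Single dose of 20 µM compound, 1% DMSO final | Incubation: Cells overnight before dosing, compound overnight, 37 °C, 5% CO2 | Evaluation: GFP/RFP fluorescence ratio | Control set: DMSO and RFP-L50D-GFP cell wells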
CSC inhib: cancer stem cell viability inhibitors, primary screen, luminescence; cancer stem cell-like cells viability; inhibition, % at 7.5 µM; hit rate 1.1% among 300,000; AID 2717, 2010;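 active = mean at 75% or more and at least half the replicates too; tested in HMLE shEcad cells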;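 also: 0% = median of negative and 100% = median of positive control wells; the first replicate is given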
Yeast UUG start: modulators of yeast start codon fidelity, primary screen, whole organism, S. cerevisiae, single point, plate reader | S. cerevisiae UUG-firefly luciferase reporter, luminescence/redox ratio | activity score, % at 18.7 µM | hit rate 0.13% among 350,000 | AID 602363, 2012;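 active = replicate mean at a twofold rise or more, about +100% in these data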;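 also: firefly luciferase made from a UUG start codon reports start codon fidelity; reporter light over untreated wells divided by growth signal over untreated wells; some hits fall short of that in this replicate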
PABP polyA inh: PABP poly(A) RNA binding inhibitors, primary screen, biochemical, fluorescence polarization, uHTS; hit rate 1% among 290,000; AID 2014, 2009; inhibition, % at 35 µM; Polyadenylate-binding protein 1 (Homo sapiens), P11940;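 active = 50% or more with normal probe brightness, or confirmed in later tests; about a fifth of its hits are not listed in these tables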;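 also: calls also rest on retests at 20 µM and on dose response follow-up; controls were probe without protein and protein plus probe with vehicle; some compounds called inactive have numbers as strong as hits; many hits fall short of the cut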
Target sequence (P11940 whole entry, looked up): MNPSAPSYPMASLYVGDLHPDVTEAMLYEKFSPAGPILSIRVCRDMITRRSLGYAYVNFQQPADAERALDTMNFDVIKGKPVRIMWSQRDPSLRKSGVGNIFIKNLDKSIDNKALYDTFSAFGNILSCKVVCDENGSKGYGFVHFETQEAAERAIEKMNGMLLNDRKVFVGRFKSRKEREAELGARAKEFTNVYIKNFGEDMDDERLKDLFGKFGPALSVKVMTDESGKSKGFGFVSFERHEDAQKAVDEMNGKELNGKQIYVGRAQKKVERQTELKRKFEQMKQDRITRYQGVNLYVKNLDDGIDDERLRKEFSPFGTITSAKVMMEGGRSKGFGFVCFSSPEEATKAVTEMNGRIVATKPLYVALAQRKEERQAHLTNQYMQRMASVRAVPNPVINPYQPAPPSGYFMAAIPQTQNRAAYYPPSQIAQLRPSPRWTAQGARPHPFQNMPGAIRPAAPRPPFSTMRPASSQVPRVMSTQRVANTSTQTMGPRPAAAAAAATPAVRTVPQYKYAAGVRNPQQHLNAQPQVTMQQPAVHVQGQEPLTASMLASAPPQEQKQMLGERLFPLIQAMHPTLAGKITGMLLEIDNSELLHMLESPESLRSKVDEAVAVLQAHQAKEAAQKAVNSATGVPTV
eIF4H inh retest: also measured in eIF4H inh; calls as there; inhibition, %; compound at 20 µM; confirmation average;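 mean of two retest wells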
PABP polyA inh retest: also measured in PABP polyA inh; calls as there; inhibition, %; compound at 20 µM; confirmation repeats;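 mean of two retest wells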
MT1-MMP act inh RFP: further read-out of MT1-MMP act inh, marked with its call; RFP signal change, %; measured here: RFP expression control read;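 0 = vehicle wells; hits needed this value within 50% of zero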
Starred values were filed as active, the others as inactive; i = inactive; . = not tested or not shown.

SMILES | Rce1 inhib | eIF4H inh | HIV Env fusion | MT1-MMP act inh | MT1-MMP act inh RFP | CSC inhib | Yeast UUG start | PABP polyA inh | others
CCOc1ccc(C(=O)CSc2nnc(C3CC3)n2C)cc1 | i | -5 | . | 0 | -1 | 4 | -13 | 20
O=C(Nc1ccccc1Cl)NC1(C(=O)N2CCC(O)CC2)CCCCC1 | i | 7 | -12 | 0 | -2 | 10 | -6 | -5
COC(=O)C1=C(C)N=C2SC(C#N)=C(N)N2C1c1cc(OC)c(OC)c(OC)c1 (centres undefined) | i | -8 | . | -11 | 7 | -3 | -10 | -12
Cc1nnc(NC(=O)CSc2nnc(Cc3ccccc3)n2Cc2ccccc2)s1 | i | -7 | . | 8 | 5 | -14 | -9 | -11
CSCc1cccc(C(=O)OC(C)C(=O)Nc2c(C)n(C)n(-c3ccccc3)c2=O)c1 (centres undefined) | . | . | 6 | -1 | -2 | . | -16 | .
CCCn1c(SCC(=O)Nc2sc(C)c(C)c2C(=O)OCC)nc2c1c(=O)n(C)c(=O)n2C | i | 3 | -9 | 2 | -1 | 6 | -2 | -3
COc1cccc(NC(=S)C(C#N)=C2N(C)c3ccccc3N2C)c1 | i | 3 | 21 | 1 | 5 | -12 | -28 | 3
CC(CCc1ccccc1)NC(=O)COC(=O)c1ccc(NC(=O)CC#N)cc1 (centres undefined) | i | -11 | 8 | -5 | -1 | -1 | -12 | 4
Cc1cc(C)c(C#N)c(SCC(=O)c2ccc(Cl)cc2Cl)n1 | i | 4 | . | -20 | -12 | 42 | 7 | -4
Cc1ccc(NC(=O)CCNC(=O)c2ccco2)cc1F | i | 3 | 4 | 1 | 0 | 0 | -2 | 0
NC(=S)N=Nc1c(O)n(CCCl)c2ccc(Br)cc12 | i | 10 | -11 | 6 | 5 | 20 | -18 | 10
COCC1CCN(Cc2cn(Cc3ccccc3)nc2-c2cc3ccccc3o2)CC1 | i | -7 | 14 | 1 | -2 | 3 | . | -11
Cc1c(C(=O)NCc2ccc(F)cc2)c(-c2ccccc2)nn1-c1ccccc1 | i | -7 | -12 | -1 | -4 | 69 | -9 | 5
COc1ccc(CN2C(=O)CC(C(=O)NCCc3ccc(S(N)(=O)=O)cc3)SC2=Nc2ccccc2)cc1 (centres undefined) | i | 0 | -3 | -14 | -6 | 6 | . | -21
COc1ccc(C)cc1NC(=O)COC(=O)c1ccccc1SCC(=O)N1CCCC1 | i | . | -6 | 3 | -4 | -3 | -37 | .
Cc1nn(CCOc2ccccc2Cl)c(C)c1[N+](=O)[O-] | i | 0 | -6 | -2 | -6 | 2 | -28 | 0
CC(C)CCN(C(=O)C1CCCC1)c1c(N)n(Cc2ccccc2)c(=O)[nH]c1=O | . | . | 2 | -1 | 0 | 1 | -36 | .
CC(Oc1ccc2c(c1)oc(=O)c1ccccc12)C(=O)NC(Cc1c[nH]c2ccc(O)cc12)C(=O)O (centres undefined) | . | 39 | . | 1 | 3 | -16 | -19 | 19
CCOC(=O)C1=C(c2ccccc2)Nc2ncnn2C1c1ccc(C(=O)O)cc1 (centres undefined) | i | 10 | -7 | 8 | 9 | -17 | -11 | 15
O=C(O)c1ccc(NC(=O)c2ccc(COc3ccc(Cl)cc3)o2)cc1 | i | -6 | 2 | 3 | -4 | -3 | -11 | 30
CC(C)[C@@H]1NC(=O)c2cc([N+](=O)[O-])cc(I)c2NCCC[C@@H](C(=O)NC(CC(=O)O)C(N)=O)NC(=O)[C@H](CO)NC1=O (some centres undefined) | i | 0 | 21 | 2 | 6 | 13 | -6 | 25
COc1ccc(Cc2nnc(NC(=O)C3CC(=O)N(c4ccccc4)C3)s2)cc1OC (centres undefined) | i | 10 | 15 | 7 | 4 | 0 | -1 | 2
CC(C(=O)c1ccccc1)C(O)c1ccccn1 (centres undefined) | . | . | -80 | 3 | 1 | . | -33 | .
CCN(CC)CCN(C(=O)c1ccc2c(c1)CCCC2)c1nc2cc(OC)c(OC)cc2s1 | i | -11 | . | 1 | 1 | -3 | 8 | 0
Cc1ccc(-c2nn(-c3ccccc3)cc2CO)cc1 | i | 0 | -49 | 3 | 2 | 9 | 2 | 12

2 neighbouring compounds out of the list so far, for reference:
SMILES | Rce1 inhib | eIF4H inh | HIV Env fusion | MT1-MMP act inh | MT1-MMP act inh RFP | CSC inhib | Yeast UUG start | PABP polyA inh | others
CCN(CC)CCN(C(=O)c1ccc2c(c1)CCCC2)c1nc2cc(OC)c(OC)cc2s1 | i | -11 | . | 1 | 1 | -3 | 8 | 0
Cc1ccc(-c2nn(-c3ccccc3)cc2CO)cc1 | i | 0 | -49 | 3 | 2 | 9 | 2 | 12

Next section.
SMILES | Rce1 inhib | eIF4H inh | HIV Env fusion | MT1-MMP act inh | MT1-MMP act inh RFP | CSC inhib | Yeast UUG start | PABP polyA inh | others
NC(=O)NC(=O)c1nccnc1C(=O)O | i | -9 | -20 | -2 | -1 | -1 | -15 | 10
COc1ccc(-c2c(C)oc3c(CN4CCN(CCO)CC4)c(O)ccc3c2=O)cc1OC | i | 4 | . | 2 | 6 | -4 | . | 2
O=C(COC(=O)c1cccs1)Nc1ccccc1 | i | -11 | . | -1 | 10 | 2 | -19 | -2
CCCCCc1c(C)nc(Nc2nc(C)c3cc(OC)ccc3n2)[nH]c1=O | i | 2 | . | 3 | 5 | -9 | -9 | 2
CC(C)CCNC(=O)CSc1nc2ccsc2c(=O)n1NC(=O)c1ccccc1 | i | -1 | -36 | 1 | -1 | -19 | 3 | -7
Cc1ccc(P(=O)(O)c2ccc(C)cc2)cc1 | i | 4 | . | 3 | 0 | -1 | -10 | 1
CCOC(=O)c1c(C)[nH]c(C)c1S(=O)(=O)NCCc1ccc(SC)cc1 | i | -2 | 15 | 2 | -3 | 18 | -21 | 9
Cc1ccc(C(=O)OCC(=O)NCCNC(=O)COC(=O)c2ccc(C)s2)s1 | i | . | 0 | -1 | 0 | 0 | -11 | .
COCCNCCCCOc1ccc(Br)cc1C | i | 1 | -79 | 5 | 2 | -4 | 4 | -2
Cc1[nH]c2ccccc2c1/C=N/NC(=O)c1cccs1 | i | -4 | -13 | 7 | 7 | -4 | . | 67 | eIF4H inh retest=1;PABP polyA inh retest=5
N#CC1=C(N)Oc2cc(O)ccc2C1c1cccs1 (centres undefined) | i | 12 | . | -90 | -4 | -3 | -16 | 2
O=C(Nc1ccc(Cl)cc1)/C(=C/c1cccc(O)c1)c1nc2ccccc2s1 | i | 4 | -183 | -46 | -41 | -8 | . | -7
O=C(NC1CCCCCC1)C1CCN(S(=O)(=O)c2ccc(F)cc2)CC1 | i | 2 | . | -3 | -2 | -23 | -16 | 2
Cc1ccc(CCN2CC(C(=O)N3CCN(c4ccc(F)cc4)CC3)CC2=O)cc1 (centres undefined) | i | -1 | . | 0 | -1 | -1 | 11 | 1
COc1ccc(OC)c(C2CC(=O)c3c([nH]c(C(=O)OC(C)C)c3C)C2)c1 (centres undefined) | i | -14 | -279 | 2 | -17 | 52 | -19 | -2
COc1ccc([N+](=O)[O-])cc1NC(=O)c1ccc(CN(c2ccccc2)S(C)(=O)=O)cc1 | i | -4 | -3 | 1 | -1 | 57 | . | -14
Cc1cc(C)nc(N(C#N)Cc2ccccc2C)n1 | i | -3 | -10 | 3 | 3 | -11 | -8 | -4
COc1ccc(NC(=O)c2sc3nc(N4CCCC4)c4c(c3c2N)CC(C)(C)OC4)cc1 | i | -4 | -16 | -3 | -2 | 20 | -12 | 9
CN(Cc1ccc(F)cc1)C(=O)c1cccc(NS(=O)(=O)c2ccccc2)c1 | i | 4 | 11 | 2 | 0 | 8 | 7 | -4
CCOc1ccc(C(=O)OCC(=O)N2CCOCC2)cc1OCC | . | -12 | -9 | 0 | 1 | -8 | -12 | 4
O=C(N/N=C\c1ccncc1)c1ccc(Cl)s1 | i | -15 | -8 | -4 | 1 | 0 | -13 | -6
CCc1nc(Nc2cccc(OC)c2)c2oc3ccccc3c2n1 | i | 3 | -10 | 7 | -5 | -3 | -15 | 12
CCc1ccc(S(=O)(=O)N2CC(=O)Nc3ccccc32)cc1 | i | -3 | . | -4 | 0 | -15 | -3 | -9
Cc1cc(C)c(C#N)c(SCS(=O)Cc2ccccc2)n1 (centres undefined) | i | 3 | 2 | 0 | -5 | -7 | -5 | -3
CCn1cc(C2=NCC(C)O2)c2ccccc21 (centres undefined) | i | -3 | -48 | -1 | 0 | -8 | -18 | -6

Quoted at random: 3 records from the list
SMILES | Rce1 inhib | eIF4H inh | HIV Env fusion | MT1-MMP act inh | MT1-MMP act inh RFP | CSC inhib | Yeast UUG start | PABP polyA inh | others
O=C(N/N=C\c1ccncc1)c1ccc(Cl)s1 | i | -15 | -8 | -4 | 1 | 0 | -13 | -6
COc1ccc(NC(=O)c2sc3nc(N4CCCC4)c4c(c3c2N)CC(C)(C)OC4)cc1 | i | -4 | -16 | -3 | -2 | 20 | -12 | 9
O=C(COC(=O)c1cccs1)Nc1ccccc1 | i | -11 | . | -1 | 10 | 2 | -19 | -2

The main list resumes with the 6 entries that preceded the break.
SMILES | Rce1 inhib | eIF4H inh | HIV Env fusion | MT1-MMP act inh | MT1-MMP act inh RFP | CSC inhib | Yeast UUG start | PABP polyA inh | others
CCOc1ccc(C(=O)OCC(=O)N2CCOCC2)cc1OCC | . | -12 | -9 | 0 | 1 | -8 | -12 | 4
O=C(N/N=C\c1ccncc1)c1ccc(Cl)s1 | i | -15 | -8 | -4 | 1 | 0 | -13 | -6
CCc1nc(Nc2cccc(OC)c2)c2oc3ccccc3c2n1 | i | 3 | -10 | 7 | -5 | -3 | -15 | 12
CCc1ccc(S(=O)(=O)N2CC(=O)Nc3ccccc32)cc1 | i | -3 | . | -4 | 0 | -15 | -3 | -9
Cc1cc(C)c(C#N)c(SCS(=O)Cc2ccccc2)n1 (centres undefined) | i | 3 | 2 | 0 | -5 | -7 | -5 | -3
CCn1cc(C2=NCC(C)O2)c2ccccc21 (centres undefined) | i | -3 | -48 | -1 | 0 | -8 | -18 | -6
O=C(CCn1nc(-c2ccccc2)ccc1=O)N1CCN(c2ccccc2)CC1 | i | 5 | 3 | 1 | -3 | 12 | -26 | 4
Cc1c(/C(O)=C2\C(=O)C(=O)N(CCN(C)C)C2c2cccs2)cnn1-c1ccccc1 (centres undefined) | i | 5 | . | 2 | 10 | -6 | -9 | 3
Cc1ccc(C(N)=Nc2ccccc2)cc1 | i | -4 | -8 | -2 | 4 | -8 | -21 | -9
COc1cc(OC)cc(-c2c(C#Cc3ccsc3)c3cc(-c4cccc5[nH]ccc45)ccc3n2C)c1 | . | . | -105 | -5 | -3 | 13 | -4 | .
Cc1ccc(O)c(N=Cc2sc3ccccc3c2Cl)c1 | i | 26 | -39 | -3 | -2 | 2 | -7 | -1
O=C(CN1C(=O)c2ccccc2C1=O)NCC(=O)OCC(=O)c1ccc(Cl)cc1 | i | 0 | -5 | 3 | 8 | -7 | . | 2

A portion of the library; count on the stated rates, not on these rows.
